Source: PubChem (National Center for Advancing Translational Sciences (NCATS))
FEN1 inhibitor – qHTS Assay for the Inhibitors of Human Flap endonuclease 1 (FEN1). 390,000 tested, 0.35% active. Potency, µM (titrated, usually from 114 µM), for inactives: top-dose activity change, negative = inhibition, most hits filed as inhibitors. Recombinant FEN1 flap cleavage, fluorescence, 15 min. AID 588795, 2011. P39748; note: nearly all actives have a fitted effect of over 65% in size
Target sequence (P39748 whole entry, looked up): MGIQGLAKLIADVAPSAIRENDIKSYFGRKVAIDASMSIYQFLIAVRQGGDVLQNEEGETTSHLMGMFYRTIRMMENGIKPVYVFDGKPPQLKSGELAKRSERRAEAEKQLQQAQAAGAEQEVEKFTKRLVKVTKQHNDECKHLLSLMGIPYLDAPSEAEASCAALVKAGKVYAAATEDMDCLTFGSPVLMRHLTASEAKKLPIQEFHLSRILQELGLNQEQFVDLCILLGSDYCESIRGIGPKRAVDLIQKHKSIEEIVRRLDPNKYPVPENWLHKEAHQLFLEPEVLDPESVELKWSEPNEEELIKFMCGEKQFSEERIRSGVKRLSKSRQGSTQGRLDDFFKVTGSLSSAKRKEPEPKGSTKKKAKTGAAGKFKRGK
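Reaction started by adding substrate (50 nM final) to 10 nM enzyme after 15 min room-temperature compound preincubation. Reads at 0 and 15 min, with data normalized and fitted to a four-parameter Hill equation.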
TDP1 block – qHTS Assay for Inhibitors of Tyrosyl-DNA Phosphodiesterase (TDP1); 350,000 tested, 0.28% active; recombinant TDP1, AlphaScreen DNA substrate cleavage; Tyrosyl-DNA phosphodiesterase 1 (Homo sapiens), Q9NUW8; AID 485290, 2010; Potency, µM (titrated, usually from 130 µM), for inactives: top-dose activity change, negative = inhibition, most hits filed as inhibitors; note: nearly all actives have a fitted effect of over 40% in size
Target sequence (Q9NUW8 whole entry, looked up): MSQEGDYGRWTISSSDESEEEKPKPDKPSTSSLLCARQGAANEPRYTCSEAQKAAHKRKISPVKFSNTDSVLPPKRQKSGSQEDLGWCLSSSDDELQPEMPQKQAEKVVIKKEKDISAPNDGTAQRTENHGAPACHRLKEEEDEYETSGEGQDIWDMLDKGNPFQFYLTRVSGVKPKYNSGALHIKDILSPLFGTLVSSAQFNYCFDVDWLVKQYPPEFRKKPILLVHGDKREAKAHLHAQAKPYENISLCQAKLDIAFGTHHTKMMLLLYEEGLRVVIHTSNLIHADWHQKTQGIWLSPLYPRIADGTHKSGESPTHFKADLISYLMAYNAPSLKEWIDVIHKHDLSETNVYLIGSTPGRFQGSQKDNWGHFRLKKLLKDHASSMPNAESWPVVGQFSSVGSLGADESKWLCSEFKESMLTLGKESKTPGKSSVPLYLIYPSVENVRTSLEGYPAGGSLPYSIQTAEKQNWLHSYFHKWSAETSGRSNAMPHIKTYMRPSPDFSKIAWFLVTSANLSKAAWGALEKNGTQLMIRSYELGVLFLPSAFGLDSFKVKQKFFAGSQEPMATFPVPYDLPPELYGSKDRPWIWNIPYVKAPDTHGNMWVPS
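E. coli-derived human Tdp1, 1 nM final. Cpd preinc 15 min RT; substrate 15 nM final, 5 min RT; AS bead mix 10 ug/ml final, 10 min RT. Signal loss = tyrosine-FITC cleavage. No-enzyme wells = max signal.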
* = called active by the depositor; & = joins results of further samples; [ ] = another dose, or the depositor's remark. Calls come from the whole dose curve; as a rule, active = well fitted inhibition curve with a large enough effect; inconclusive = small, poorly fitted or top-dose-only effect; inactive = no such curve, though single readings can be large or run the other way. % is set by controls: 0 for no effect and ±100 for the full control effect; potency is the fitted concentration of half-maximal effect. This is a subset, and most or all hits are left out here.

`COc1ccccc1N(C(=O)c1snc(C(N)=O)c1N)C(C(=O)NC1CCCC1)c1ccco1` (stereo not drawn) gave FEN1 inhibitor -23% and TDP1 block 4%.
CC(=O)N1CCc2c(sc(NC(=O)CCS(=O)(=O)c3ccc(C)cc3)c2C(N)=O)C1 was read as FEN1 inhibitor 9% and TDP1 block 7%.
For CCn1c(CC(=O)Nc2ccc(F)cc2)nnc1SCC(=O)Nc1nnc(C)s1 the results were FEN1 inhibitor 38% and TDP1 block 5%[0.0935 µM].
O=S(=O)(c1ccc(Br)cc1)N1CCN(Cc2ccco2)CC1 was read as FEN1 inhibitor -5% and TDP1 block 2%.
For O=C(Nc1ccc(C(=O)N2CCCC2)cc1)c1ccccc1Br the results were FEN1 inhibitor 4% and TDP1 block 1%.
CCCC(=O)Nc1nnc(-c2ccc3c(c2)OCO3)s1 was read as FEN1 inhibitor -3% and TDP1 block -1%.
Screening Cc1[nH]c(=O)c(C#N)c(C)c1Cl returned FEN1 inhibitor -6% and TDP1 block -1%.
`NS(=O)(=O)c1ccc(CNC(=O)c2cc(-c3cccnc3)nc3ccc(Br)cc23)cc1` gave FEN1 inhibitor 19% and TDP1 block 0%.
O=C(NCCn1cc(SCC(=O)N2CCOCC2)c2ccccc21)c1c(F)cccc1F was read as FEN1 inhibitor 3% and TDP1 block 3%.
CC(C)C(=O)Nc1cccc(C(=O)Nc2ccc3c(c2)OCO3)c1 was read as FEN1 inhibitor 9% and TDP1 block -2%.
For Cc1cc(C)c2cc(CN(CCO)Cc3nnnn3Cc3ccc(F)cc3)c(=O)[nH]c2c1 the results were FEN1 inhibitor 0% and TDP1 block 2%.
Screening CC(NC(=O)c1cccnc1)c1ccc2c(c1)OCO2 (stereo not drawn) returned FEN1 inhibitor -10% and TDP1 block 5%.
For CCOC(=O)C1(Cc2cccc(OC)c2)CCN(Cc2cnc(SC)nc2)CC1 the results were FEN1 inhibitor -9% and TDP1 block 0%.
COc1cc(NC(=O)CCn2c(=O)oc3ccccc32)cc(OC)c1OC was read as FEN1 inhibitor -13%&2% and TDP1 block 1%&1%.
For c1cnc(-c2noc(CN3CCN(C4CCCC4)CC3)n2)cn1 the results were FEN1 inhibitor 0% and TDP1 block -5%.
O=C1Nc2ccccc2C12Nc1ccccc1S2 (stereo not drawn) was read as TDP1 block 5%.
COc1ccccc1C(=O)NCCC(=O)Nc1ncccc1C was read as FEN1 inhibitor -3% and TDP1 block 2%.
Screening COc1cccc(CSc2nc3ccccc3[nH]2)c1 returned FEN1 inhibitor 14% and TDP1 block 3%.
Screening COc1ccc(C2=NS(=O)(=O)N(C)C(C(=O)Nc3cc(OC)c(OC)c(OC)c3)=C2)cc1 returned FEN1 inhibitor -6% and TDP1 block 7%.
For C/C(=N/N1CCN(c2ccccn2)CC1)c1cccc([N+](=O)[O-])c1 the results were FEN1 inhibitor 8% and TDP1 block 0%.
COc1ccccc1CN1CCCCC1C(=O)O (stereo not drawn) was read as FEN1 inhibitor -6% and TDP1 block 5%.
For Nc1nc2n[nH]nc2c(=O)[nH]1 the results were FEN1 inhibitor 19%&-5% and TDP1 block -11%[21 µM].
O=C(N/N=C/C(Cl)=C/c1ccccc1)c1ccccn1 was read as FEN1 inhibitor 5% and TDP1 block -3%.
Screening CCN(Cc1ccccc1)S(=O)(=O)c1ccc(S(=O)(=O)N2CCN(CCC#N)CC2)cc1 returned FEN1 inhibitor 0% and TDP1 block -1%.
Screening CCCCCNC(=O)C1CC=CCC1C(=O)O (stereo not drawn) returned FEN1 inhibitor -7% and TDP1 block -1%.
CC(=O)c1nn(-c2cccc(Br)c2)cc1C(=O)c1ccco1 was read as FEN1 inhibitor -10% and TDP1 block 0%.
Screening COc1ccccc1C(=O)Nc1ccnn1C1CCN(Cc2cnn(C)c2C)CC1 returned FEN1 inhibitor 3% and TDP1 block 0%.
Screening O=c1c2cc(Cl)ccc2oc2nc3n(c(=O)c12)CCCS3 returned FEN1 inhibitor 1% and TDP1 block 1%.
Screening O=C(CCNC(=O)c1ccc(Cl)cc1)Nc1c(F)c(F)cc(F)c1F returned FEN1 inhibitor -14% and TDP1 block -3%.
`NC(=O)CNC1CC(=O)N(CCc2ccccc2)C1=O` (stereo not drawn) gave FEN1 inhibitor 3% and TDP1 block 4%.
Cc1cc(C)nc(SCC(=O)N(C)C)n1 was read as FEN1 inhibitor -4% and TDP1 block 6%.
Screening CCc1ccccc1Oc1ccc(S(=O)(=O)N2CCN(C)CC2)cn1 returned FEN1 inhibitor 6% and TDP1 block -6%.
`COc1cc2c(cc1OC)C(C)N(C(=O)[C@@H](NC(=O)c1ccccc1)C(C)C)CC2` (stereo partly drawn) gave FEN1 inhibitor 3%.
CCOc1ccc(OCC(=O)OCc2csc(CC(=O)Nc3ccccc3C)n2)cc1 was read as FEN1 inhibitor -4% and TDP1 block 1%.
`O=C(CCNC(=O)c1ccc([N+](=O)[O-])cc1)Nc1cccc(S(=O)(=O)N2CCCCC2)c1` gave FEN1 inhibitor 8% and TDP1 block 6%.
For CC(C)CNC(=O)CN(c1cccc(Cl)c1)S(C)(=O)=O the results were FEN1 inhibitor -1% and TDP1 block 3%.
`CCC(=O)Nc1cccc(C(=O)/C=C/c2cccs2)c1` gave FEN1 inhibitor 13% and TDP1 block 2%.
`CCC(=O)Nc1ccc(N2CCN(C(=O)c3cccs3)CC2)cc1` gave FEN1 inhibitor 18% and TDP1 block -2%.
Screening Cc1sc2nc(CSC(C)C(=O)Nc3ccc(C#N)cc3)[nH]c(=O)c2c1C (stereo not drawn) returned FEN1 inhibitor 10%.
Screening O=C1/C(=C/c2cccnc2)SC(=S)N1c1ccc(F)cc1 returned FEN1 inhibitor -1% and TDP1 block 3%.
`CCN(C(=O)COC(=O)/C=C/c1cccc(Br)c1)C1CCS(=O)(=O)C1` (stereo not drawn) gave FEN1 inhibitor 6% and TDP1 block 3%.
COc1ccc(CN(CC2CCCO2)C(=O)c2cc3ccccc3oc2=O)cc1 (stereo not drawn) was read as FEN1 inhibitor 19% and TDP1 block -3%.
`COc1ccc(C(=O)NCc2nnc(SCC(=O)NCc3ccco3)o2)cc1OC` gave FEN1 inhibitor -10% and TDP1 block 0%.
Screening O=S(=O)(c1cccc2nsnc12)N1CCN(c2ncccn2)CC1 returned FEN1 inhibitor -10% and TDP1 block 3%.
For COc1ccc(Cl)cc1NS(=O)(=O)c1cccc2cccnc12 the results were FEN1 inhibitor 3%.
For COc1ccc(CSC(=N)N)cc1[N+](=O)[O-] the results were FEN1 inhibitor -1% and TDP1 block 2%.
For CSc1nc2c(c(=O)[nH]1)C(c1ccc(Br)cc1)CC(=O)N2 (stereo not drawn) the results were FEN1 inhibitor 3% and TDP1 block 2%.
For O=S(=O)(Nc1ccc(-n2cccc2)cc1)c1ccc(F)cc1 the results were FEN1 inhibitor -2% and TDP1 block 7%.
For CNS(=O)(=O)c1cccc(C(=O)OCC(=O)c2ccc(S(=O)(=O)N3CCCCC3)cc2)c1 the results were FEN1 inhibitor -20% and TDP1 block 0%.
`c1ccc(C2=Nc3ccccc3NC(c3ccccc3)C2)cc1` (stereo not drawn) gave FEN1 inhibitor 1% and TDP1 block -6%.
For Cc1cc(C)n(CCC(=O)N/N=C/c2cccc([N+](=O)[O-])c2)n1 the results were FEN1 inhibitor -14% and TDP1 block 3%.
`CCCCC(=O)Nc1ccc(C(=O)Nc2cc(C(F)(F)F)ccc2Cl)cc1` gave FEN1 inhibitor -2% and TDP1 block -3%.
For Nc1nc2ccccc2n1C(=O)c1cccs1 the results were FEN1 inhibitor -5% and TDP1 block 6%.
`COCc1cc(C)n(CC(=O)Nc2cc(C)cc(C)c2)c(=O)c1C#N` gave FEN1 inhibitor -10% and TDP1 block -5%.
For CC(=O)NC(CC(=O)N(C)C1CCCCC1)c1ccccc1 (stereo not drawn) the results were FEN1 inhibitor 2% and TDP1 block 3%.
For C=CCO/N=C(/C)c1c(O)c(CC)c(-c2ccccc2)n(-c2ccccc2)c1=O the results were FEN1 inhibitor 0% and TDP1 block 0%.
`COc1ccc(CNC(=O)CCCn2ncn3c(cc4occc43)c2=O)cc1` gave FEN1 inhibitor 15% and TDP1 block 6%.
`CCOC(=O)C1=C(C)Nc2ccccc2N=C1N` gave FEN1 inhibitor 8% and TDP1 block -5%.
COc1ccc(-c2cc(-c3nnc(COC(=O)C4CC4)o3)c3ccccc3n2)cc1OC was read as FEN1 inhibitor -5% and TDP1 block -3%.
Screening COc1cc(C2C(C#N)=C(SC)NC3=C2C(=O)CCC3)ccc1O (stereo not drawn) returned FEN1 inhibitor 0% and TDP1 block -1%.

Five compounds from above, arranged by number of heavy atoms, rising.
For Nc1nc2ccccc2n1C(=O)c1cccs1 the results were FEN1 inhibitor -5% and TDP1 block 6%.
`CCOC(=O)C1=C(C)Nc2ccccc2N=C1N` gave FEN1 inhibitor 8% and TDP1 block -5%.
For Cc1cc(C)n(CCC(=O)N/N=C/c2cccc([N+](=O)[O-])c2)n1 the results were FEN1 inhibitor -14% and TDP1 block 3%.
Screening COc1cc(C2C(C#N)=C(SC)NC3=C2C(=O)CCC3)ccc1O (stereo not drawn) returned FEN1 inhibitor 0% and TDP1 block -1%.
For C=CCO/N=C(/C)c1c(O)c(CC)c(-c2ccccc2)n(-c2ccccc2)c1=O the results were FEN1 inhibitor 0% and TDP1 block 0%.

Among those listed so far, these have a COOH group.
COc1ccccc1CN1CCCCC1C(=O)O (stereo not drawn) was read as FEN1 inhibitor -6% and TDP1 block 5%.
Screening CCCCCNC(=O)C1CC=CCC1C(=O)O (stereo not drawn) returned FEN1 inhibitor -7% and TDP1 block -1%.

The list continues:
Screening O=C(Cn1cc(/C=N/NC(=O)c2ccccc2Br)c2ccccc21)Nc1ccc(F)cc1 returned FEN1 inhibitor -19% and TDP1 block 3%.
Screening COC(=O)c1ccc(NC(=O)COC(=O)c2nc3nccc(C)n3n2)cc1 returned FEN1 inhibitor -4% and TDP1 block 2%.
`CCN(CC(=O)Nc1ccccc1C(F)(F)F)C(=O)c1cccc(N2C(=O)CCC2=O)c1` gave FEN1 inhibitor 5%.
`CCn1cc(C(=O)NC(C)C23CC4CC(CC(C4)C2)C3)cn1` (stereo not drawn) gave FEN1 inhibitor 5% and TDP1 block -2%.
Screening CCOC(=O)C1(C)/C(=N/Nc2ccccc2OC)C(=O)C(=O)N1c1ccccc1 (stereo not drawn) returned FEN1 inhibitor 11% and TDP1 block 10%.
Screening CC(=O)N1Cc2ccccc2CC1C(=O)O (stereo not drawn) returned FEN1 inhibitor 6%.
Cc1ccc(CN=c2c([N+](=O)[O-])nn(-c3ccc(Cl)cc3)n2O)cc1 was read as FEN1 inhibitor 2% and TDP1 block 6%.
Screening O=C(N/C(=C/c1cccc([N+](=O)[O-])c1)C(=O)N1CCCCC1)c1ccco1 returned FEN1 inhibitor -14% and TDP1 block 3%.
For Cc1ccc(S(=O)(=O)N/N=C\c2cccnc2)cc1 the results were FEN1 inhibitor -3% and TDP1 block 11%.
`CN(C(=O)COC(=O)c1ccc(=O)n(Cc2ccccc2)n1)C1CCS(=O)(=O)C1` (stereo not drawn) gave FEN1 inhibitor 14% and TDP1 block 1%.
Cc1c(C)n2c(SCC(=O)NC3CCCCC3)nnc2[nH]c1=O was read as FEN1 inhibitor -1%.
`C/C(=N\NC(=O)c1ccc2c(c1)OCO2)c1ccc(O)cc1` gave FEN1 inhibitor -1% and TDP1 block 2%.
CSc1ncccc1C(=O)OCC(=O)NCc1ccc2c(c1)OCO2 was read as FEN1 inhibitor -9% and TDP1 block 5%.
CC(=O)OCC(=O)[C@H]1CC[C@H]2[C@@H]3CC=C4C[C@@H](O)CC[C@]4(C)[C@H]3CC[C@]12C was read as FEN1 inhibitor 20% and TDP1 block 5%.
`COc1ccc(CC(=O)NCc2ccco2)cc1OC` gave FEN1 inhibitor -5% and TDP1 block 4%.
Screening Cc1[nH]c2c(Cl)cccc2c(=O)c1CN1CCCCCC1 returned FEN1 inhibitor 0%.
`CC1CCc2sc3nc(N4CCN(CCO)CC4)n4ncnc4c3c2C1` (stereo not drawn) gave FEN1 inhibitor -18% and TDP1 block 4%.
`COc1ccccc1/C=C/C(=O)Nc1cccc(S(=O)(=O)NC2=NCCCCC2)c1` gave FEN1 inhibitor -7% and TDP1 block 3%.
Screening O=C(COc1ccc2c3c(c(=O)oc2c1)CCC3)N[C@@H](CSCc1ccccc1)C(=O)O returned FEN1 inhibitor -11%.
Screening COC(=O)c1cc(NC(=O)CSc2nnc(N)s2)ccc1Cl returned FEN1 inhibitor -5% and TDP1 block 3%.
For O=[N+]([O-])c1ncn(Cc2c(Cl)cccc2Cl)n1 the results were FEN1 inhibitor 10% and TDP1 block 0%.
O=C(O)[C@H](Cc1ccccc1)NC(=O)N1CCOCC1 was read as FEN1 inhibitor 0% and TDP1 block 3%.
For Cc1ccc(S(=O)(=O)c2cn(C)c3cc(N4CCN(C)CC4)c(F)cc3c2=O)cc1 the results were FEN1 inhibitor 2%&2% and TDP1 block 7%&2%.
Cc1cccc(CCNS(=O)(=O)c2ccc3c(c2)n(C)c(=O)c(=O)n3C)c1 was read as FEN1 inhibitor 20% and TDP1 block 2%.
`CCOC(=O)CS(=O)(=O)c1ccc(O)cc1` gave FEN1 inhibitor 0% and TDP1 block -5%.
